Bioassay records deposited in PubChem BioAssay by National Center for Advancing Translational Sciences (NCATS).
Six1-Eya2 blk – blocks human Six1 binding to Eya2; AID 651725; AlphaScreen GST-Six1/His-Eya2 binding, biochemical; hits give low values; control for the full effect not named in the record; activity change, % (test concentration not listed); Q15475+O00167; hit rate 0.56% among 360,000; in the data active = activity change below about -65%; inconclusive = about -30% to -65%; inactive = above about -30%; further: on the % scale 0 is the no-effect control and ±100 the full control effect; compound concentration not given in the record
Target sequence (O00167 whole entry, looked up): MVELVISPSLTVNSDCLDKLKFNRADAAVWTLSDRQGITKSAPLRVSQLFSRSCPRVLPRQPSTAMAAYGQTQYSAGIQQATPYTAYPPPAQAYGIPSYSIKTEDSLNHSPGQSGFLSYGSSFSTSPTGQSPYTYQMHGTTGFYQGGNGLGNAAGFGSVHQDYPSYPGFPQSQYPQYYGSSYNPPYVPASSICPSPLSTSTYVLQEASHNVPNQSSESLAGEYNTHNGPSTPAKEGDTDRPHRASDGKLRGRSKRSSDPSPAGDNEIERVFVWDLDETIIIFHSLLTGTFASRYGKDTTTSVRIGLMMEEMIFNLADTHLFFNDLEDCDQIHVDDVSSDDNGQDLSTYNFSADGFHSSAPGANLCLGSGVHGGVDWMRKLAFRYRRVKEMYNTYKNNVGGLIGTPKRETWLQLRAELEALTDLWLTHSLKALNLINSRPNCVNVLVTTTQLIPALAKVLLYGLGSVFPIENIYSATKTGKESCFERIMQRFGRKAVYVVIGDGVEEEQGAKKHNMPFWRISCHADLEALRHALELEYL
Target sequence (Q15475 whole entry, looked up): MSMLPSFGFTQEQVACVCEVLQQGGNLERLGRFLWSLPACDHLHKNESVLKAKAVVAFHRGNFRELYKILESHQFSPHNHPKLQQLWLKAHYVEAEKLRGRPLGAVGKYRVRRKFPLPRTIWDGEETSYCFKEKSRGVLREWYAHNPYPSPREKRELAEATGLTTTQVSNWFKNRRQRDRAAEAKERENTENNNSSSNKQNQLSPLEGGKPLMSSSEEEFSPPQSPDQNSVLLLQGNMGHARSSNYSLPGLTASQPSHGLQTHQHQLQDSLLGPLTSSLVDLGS
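Homogeneous AlphaScreen proximity assay pairing GST-Six1 with His-tagged Eya2 (added as 5X mix: 250 nM and 500 nM) in 50 mM Tris pH 8.0, 300 mM NaCl, 1 mM TCEP. Glutathione donor and nickel acceptor beads; 1 h, 37 °C, dark.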
PINK1 expr mod – modulators of PINK1 expression; PINK1 immunofluorescence, high-content cytometry, 24 h; Potency, µM (doses to about 76.6 µM), for inactives: at the top dose activation (PINK1 increase), most hits filed as activators; hit rate 0.2% among 410,000; AID 624263; active = well fitted activation curve with a large enough effect; inconclusive = small, poorly fitted or top-dose-only effect; inactive = flat fitted curve, though single readings scatter; cell line not stated here;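 further: potency means the concentration at half of the fitted maximal effect; % of control where 0% means no effect; nearly all actives have a fitted effect of over 65% in size; a mitochondrial uncoupler was the plate control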
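Measures PINK1 amount and localization on or inside mitochondria by immunofluorescence. Stable cells get compounds at 5 concentrations for 24 hours before fixation and staining; CCCP controls included.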
D2 ag – human D2 receptor agonism in beta-arrestin assay; DiscoveRx PathHunter D2 beta-arrestin, luminescence, 90 min; 100% = 57 uM dopamine signal; activation, % (test concentration not listed); hit rate 0.084% among 360,000; AID 624465; in the data active = activation above about 40%; inconclusive = about 15% to 40%; inactive = below about 15%; further: compound concentration not given in the record; the text of the record calls up to 30% inactive
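Agonist mode: compounds alone added to overnight-plated D2 PathHunter cells for 90 min at 37 C, with 57 uM final dopamine (EC100) defining full response. Beta-arrestin recruitment detected by chemiluminescent reagent, read after 1 h at ambient temperature.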
D2 PAM – potentiates the human D2 dopamine receptor allosterically; P14416; potentiation, % (concentration not given with the values); hit rate 0.23% among 360,000; DiscoveRx D2 beta-arrestin cells, luminescence, 90 min; 100% = 57 uM dopamine signal; AID 624464; active = potentiation of 50% or more; inconclusive = 30% to 50%; inactive = 30% or less;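 further: compound concentration not given in the record; tested on top of an EC20 dose of dopamine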
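D2 cells co-treated with compound plus 50 nM dopamine (EC20) for 90 min at 37 deg C to detect potentiation. Beta-arrestin recruitment was read as enzyme-fragment luminescence after 1 h at ambient temperature. Full response was set by 57 uM dopamine.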
TRPML1 blocker – inhibitors of human TRPML1 channel; Q9GZU1; TRPML1-inducible cells, Ca2+ dye fluorescence, FDSS; hits give low values; inhibition of EC80 agonist-evoked calcium signal; activity change, negative = inhibition, % (no concentration beside the values); hit rate 0.02% among 390,000; in the data active means activity change below about -50%; inconclusive means about -30% to -50%; inactive means above about -30%;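 further: stimulus is agonist 54-4 at its EC80 concentration; on the % scale 0 is the no-effect control and ±100 the full control effect; compound concentration not given in the record; the text of the record puts the active cut at -80%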
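TRPML1-DL cells, Tet-induced overnight (~16 h, 37 °C) at 1,500 cells/well, were loaded with Ca8 no-wash dye plus quencher for 45-90 min at room temperature. Compounds were pinned during FDSS kinetic reading; agonist 54-4 at EC80 (4 uM final) then added.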
TRPML1 agonist – activates the human TRPML1 channel | activation, % (test concentration not listed) | hit rate 0.12% among 410,000 | AID 624414 | TRPML1-expressing cells, Ca2+ dye fluorescence, FDSS; host cell line not named in the record; reference of the full effect not given here; in the data active = activation above about 50%; inconclusive = about 30% to 50%; inactive = below about 30%; further: 0% is about no effect; the text of the record puts the active cut at 80%
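In this qHTS format, compounds were pin-transferred onto Ca8-dye-loaded TRPML1-DL cells induced with Tet overnight, and intracellular Ca2+ fluorescence was recorded kinetically for 110 s after a 10 s baseline. A subsequent 4uM final 54-4 (EC80) addition followed by a second 110 s read served as the antagonist phase.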
Active calls of the source: *; ? = inconclusive; / = not tested or not shown; & = joins results of further samples; [ ] = another dose, or the depositor's remark.

The opening seven compounds, to show the layout:
SMILES | Six1-Eya2 blk | PINK1 expr mod | D2 ag | D2 PAM | TRPML1 blocker | TRPML1 agonist
Cc1ccc(-c2cccc(OC(=O)c3ccccc3F)c2)cc1 | 27 | 0.2% | 1.3 | -1 | -21 | 1.1
Cc1noc(C)c1COc1ccc(C(=O)Nc2ccccc2)cc1 | 4 | 7.2% | -0.5 | -5 | -1 | -0.4
O=C(Nc1ccnn1C1CCN(Cc2cccc(OCCO)c2)CC1)C1CCCC1 | 10 | 0.0% | 4.1 | -4 | 15 | 1.2
O=C(Cc1ccc([N+](=O)[O-])cc1)N1CCCCCC1 | -1 | 1.4% | 0.7 | -3 | -13 | -0.3
CC(=O)N1CCc2c(sc(NC(=O)c3ccc([N+](=O)[O-])o3)c2C(N)=O)C1 | -16 | 2.5% | -4.2 | -33 | 42 | -0.8
Cc1ccc(S(=O)(=O)N2CCN(S(=O)(=O)c3ccc(C)cc3)C3OCCOC32)cc1 (configuration not stated) | 0 | -3.7%[38.3 µM] | -1.3 | 4 | -16 | 4.4
CN(C)c1cccc(C(=O)OCC(=O)Nc2ccccc2Sc2ccccc2)c1 | -8 | 1.1% | -5.0 | 1 | 2 | 2.9

The list itself, from the start:
SMILES | Six1-Eya2 blk | PINK1 expr mod | D2 ag | D2 PAM | TRPML1 blocker | TRPML1 agonist
Cc1ccc(-c2cccc(OC(=O)c3ccccc3F)c2)cc1 | 27 | 0.2% | 1.3 | -1 | -21 | 1.1
Cc1noc(C)c1COc1ccc(C(=O)Nc2ccccc2)cc1 | 4 | 7.2% | -0.5 | -5 | -1 | -0.4
O=C(Nc1ccnn1C1CCN(Cc2cccc(OCCO)c2)CC1)C1CCCC1 | 10 | 0.0% | 4.1 | -4 | 15 | 1.2
O=C(Cc1ccc([N+](=O)[O-])cc1)N1CCCCCC1 | -1 | 1.4% | 0.7 | -3 | -13 | -0.3
CC(=O)N1CCc2c(sc(NC(=O)c3ccc([N+](=O)[O-])o3)c2C(N)=O)C1 | -16 | 2.5% | -4.2 | -33 | 42 | -0.8
Cc1ccc(S(=O)(=O)N2CCN(S(=O)(=O)c3ccc(C)cc3)C3OCCOC32)cc1 (configuration not stated) | 0 | -3.7%[38.3 µM] | -1.3 | 4 | -16 | 4.4
CN(C)c1cccc(C(=O)OCC(=O)Nc2ccccc2Sc2ccccc2)c1 | -8 | 1.1% | -5.0 | 1 | 2 | 2.9
COc1cc(C2NC(=O)NC(c3ccccc3)=C2C(C)=O)c(Br)c(Br)c1O (configuration not stated) | -9 | 2.3% | -2.0 | -1 | 15 | -0.3
O=C(NCc1cccnc1)c1ccc2sc([C@@H]3O[C@H](CO)[C@H](O)[C@H](O)[C@H]3O)nc2c1 | 3 | -0.6% | -8.4 | -10 | / | -0.6
Cc1ccc(S(=O)(=O)c2nc(-c3ccccc3)oc2SCC(=O)NCC2CCCO2)cc1 (configuration not stated) | 1 | 17% | 6.0 | -7 | -14 | 0.0
CCOc1ccc(C(=S)N2CCCC2)cc1OC | 9 | -0.6% | -0.2 | -10 | 6 | -0.7
COc1cc2c(cc1OC)C(C)N(CC(=O)Nc1ccc(S(=O)(=O)N3CCCC3)cc1)CC2 (configuration not stated) | 3 | 0.7% | 3.7 | 2 | 16 | -0.5
COc1ccc(NC(=O)C[C@H]2C(=O)N(c3ccccc3)C[C@@H]2C)cc1 | 2 | -0.4% | -7.6 | 3 | -4 | -0.6
CC1CCN(S(=O)(=O)c2ccc3c(c2)N(CC(=O)NC(C)C)C(=O)CO3)CC1 | / | -0.6% | / | / | -3 | -0.4
Cc1cc(N)nc(C)c1C#N | 0 | -0.1% | -6.8 | -6 | 30 | 0.4
COc1cccc(C2=NOC(C(=O)Nc3cccc(C(C)=O)c3)C2)c1 (configuration not stated) | 4 | 1.9%[38.3 µM] | 2.9 | -6 | 7 | 0.2
COc1cccc2sc3cc(NCc4ccc(C)o4)ccc3c(=O)c12 | -12 | 7.2% | -2.4 | -11 | 10 | -1.0
Cc1cc(C(=O)Nc2nccs2)c2cc(F)ccc2n1 | -15 | 2.6% | -3.0 | -1 | 7 | -0.7
COC(=O)c1ccc2c(=O)[nH]c(COC(=O)CCC(=O)c3ccc(Cl)cc3)nc2c1 | -1 | -1.2% | -2.4 | -1 | -4 | -1.2
Nc1nonc1-n1nnc(C(=O)N/N=C/c2cc(Br)ccc2O)c1CNc1ccccc1 | 13 | 2.0% | -7.4 | -6 | -3 | -0.4
COCCN(C(=O)COC(=O)/C=C/c1ccc(C(F)(F)F)cc1)c1c(N)n(Cc2ccccc2)c(=O)[nH]c1=O | -2 | 4.9% | -4.4 | -9 | 8 | 0.9
CCN(CC(=O)Nc1ccc(NC(C)=O)cc1)C(=O)c1ccc(N2CCC(C)CC2)c([N+](=O)[O-])c1 | -5 | 0.0% | -11 | -7 | -4 | -0.1
CCSc1ncc(/C=N/Nc2ccccc2)n1C | -22 | 2.3% | 10 | 28 | -1 | -1.0
O=C(Nc1cc(C(=O)N2CCCC2)ccc1N1CCCC1)C1CC1 | 3 | 3.3% | -2.8 | -1 | 1 | -1.0
COc1ccc(C2NC(=O)CCC2[N+](=O)[O-])cc1 (configuration not stated) | -11 | -0.4% | -4.6 | -11 | -2 | 0.6
O=[N+]([O-])c1ccc(O)c(C2=NNC(c3ccccc3F)C2)c1 (configuration not stated) | 19 | ? | -7.4 | -8 | 4 | 0.0
Cn1c(=O)c(=O)n(C)c2cc(S(=O)(=O)N3CCCCCC3)ccc21 | 2 | 19%[38.3 µM] | -1.5 | 2 | 5 | -0.9
Cc1cccc(C(=O)NC(=S)N2CCc3ccccc3C2)c1 | -4 | 2.8% | -4.5 | -17 | -14 | 2.2
COc1ccccc1N1CCN(C(=O)c2cc(-c3ccc(C)cc3)on2)CC1 | -5 | 8.7%[38.3 µM] | -0.2 | -6 | 7 | -0.4
Cc1ccc(CSCCNC(=O)CSCc2ccc([N+](=O)[O-])cc2)cc1 | -9 | 0.5%[38.3 µM] | 0.3 | -15 | -3 | -0.1
Cc1ccc(C(=O)N/N=C2\CCSC2)cc1[N+](=O)[O-] | -3 | 2.1% | -1.1 | -21 | 6 | 0.5
CCCCN1C(=O)C2C3C=CC(C2C1=O)C1C2C(=O)N(CCCC)C(=O)C2C31 (configuration not stated) | -1 | -1.2% | -0.4 | -7 | 11 | 0.8
N=C1/C(=C\c2ccc(SCc3ccccc3)o2)C(=O)N=C2SC=NN12 | -16 | -1.0% | -4.7 | -10 | 19 | 1.3
CCN(CC)C(=O)n1c(Cc2ccccc2)nc2ccccc21 | 21 | 0.7% | -4.9 | 5 | 9 | -0.2
COC(=O)c1cc(=O)n(Cc2cccs2)c(=Nc2ccc(F)cc2)s1 | 1 | -2.2% | -1.1 | -2 | 4 | -0.1
CC(C#N)(Cc1ccccc1)Nc1ccccc1 (configuration not stated) | 1 | 1.6% | -4.6 | -15 | 6 | -0.2
COc1ccc(CC(=O)N[C@@H]2c3cc(OC)c(OC)cc3C[C@H]2OCc2ccccc2)cc1 | 0 | 4.6% | 0.5 | / | -2 | -0.7
Oc1ccc(/C=N/n2c(-c3ccco3)csc2=Nc2cccnc2)c(O)c1 | -93* | 4.7% | 7.9 | ? | 2 | -0.1
Cc1nn(Cc2c(F)c(F)c(F)c(F)c2F)c(C)c1NC(=O)c1ccc(COc2ccc(Cl)cc2Cl)o1 | -8 | 4.0% | 0.5 | 7 | 6 | 0.5
Cc1nc(Nc2cc(F)ccc2C)c2nnn(Cc3ccccc3)c2n1 | -1 | 1.2% | 4.6 | 0 | 23 | 1.6
NC(=O)c1nsc(C(=O)N(CC(=O)NC2CCCCC2)c2ccc(Cl)cc2)c1N | -2 | 5.5% | -3.9 | -7 | -3 | -0.3
COc1cc(OC)c(NS(=O)(=O)c2cn(C)cn2)cc1Cl | 1 | 0.5% | 8.0 | -4 | 6 | 0.6
CC(=O)NCCNC(=O)CCCn1c(=O)[nH]c2ccsc2c1=O | / | 1.2% | / | / | 40 | -0.4
CN(Cc1cc2ccccc2[nH]c1=O)C(=O)COc1ccccc1 | 0 | -0.8% | 4.3 | 3 | 19 | 0.9
COc1ccccc1OCc1nc2ccccc2s1 | 20 | 0.8% | -1.8 | -4 | -3 | -0.3
O=[N+]([O-])c1ccccc1N=Nc1ccc(O)cc1 | -24 | 1.8% | -11 | -17 | 1 | 0.2
O=C(COc1ccc(-c2nnco2)cc1)N1CCOCC1 | 6 | -1.3% | 1.8 | -8 | -2 | -0.4
COc1ccc(OCCN(C)Cc2c(O)ccc3ccccc23)cc1 | -7 | 0.0% | -1.2 | 0 | 1 | 1.3
CC(Cc1cccs1)N(Cc1ccc(Cl)cc1)C(=O)c1ccncc1 (configuration not stated) | 1 | 0.6% | 1.4 | -5 | 17 | 2.5
CCCC1Cc2c(sc(N)c2C#N)CO1 (configuration not stated) | -10 | -0.1% | 6.8 | -1 | -3 | 0.3

(listing goes on)
SMILES | Six1-Eya2 blk | PINK1 expr mod | D2 ag | D2 PAM | TRPML1 blocker | TRPML1 agonist
COc1ccc(N2C(=O)CCC(C(C)=O)=C2C)cc1 | -1 | 0.4% | -5.0 | -8 | -15 | 1.9
CCOC(=O)C1=C(C)NC(SC)=C(C#N)C1CC(C)C (configuration not stated) | 4 | 5.2% | -18 | -8 | -11 | 0.8
Nc1c(Cl)ncnc1N/N=C/c1ccncc1 | 4 | -0.9% | -0.2 | -5 | -24 | 0.4
COCCCNC(=S)Nc1ccc2c(c1)OCCO2 | 9 | 0.9% | -3.1 | -1 | 5 | -0.3
CN(C(=O)C1CC1)C1CCS(=O)(=O)C1 (configuration not stated) | 6 | -4.2% | 0.1 | 6 | -2 | -0.2
O=C(OCCN1C(=O)c2cccc3c(N4CCOCC4)ccc(c23)C1=O)c1ccc(Cl)cc1 | 1 | 1.2% | -2.4 | -22 | 3 | 20
COc1cc(C(=S)N2CCOCC2)ccc1OS(=O)(=O)c1ccccc1[N+](=O)[O-] | -9 | -0.2% | 1.7 | 6 | 2 | -0.5
COc1cccc2cc(C(=O)NCc3ccccc3Br)c(=O)oc12 | 1 | 7.0% | 0.2 | -3 | -21 | 0.1
Cc1cccc(C(C(N)=O)c2ncc(C(F)(F)F)cc2Cl)c1 (configuration not stated) | 8 | 1.0% | -4.6 | -4 | ? | 1.3
Cc1cccc(/C=N/NC(=O)c2ccc(Br)cc2)c1 | -2 | 11% | -2.0 | -25 | 31 | 1.1
CCN(CC)c1ccc(SS(=O)(=O)O)cc1 | ? | 11% | -9.2&-3.1 | -45&-4 | -3&5 | 0.3&2.5
Cc1ccc(Cn2nc(C)c(NC(=O)CSc3n[nH]c(C)c3[N+](=O)[O-])c2C)cc1 | 1 | 2.6% | -0.7 | -12 | -14 | 0.6
C/C(=N\NC(=O)c1ccccc1[N+](=O)[O-])c1c(O)cc(C)oc1=O | 18 | -1.1% | 0.3 | 2 | -6 | -0.3
Cc1cccc(C)c1NC(=O)C1CCN(S(C)(=O)=O)CC1 | 0 | 1.5% | -0.7 | -1 | -3 | -0.9
